Screening results (PubChem BioAssay)
NPR1 antag: blocks ANP-stimulated signaling of human Npr1 receptor; P16066; HEK293 hNpr1 GloSensor cGMP, ANP-stimulated luminescence; Potency, µM (titrated, usually from 46.3 µM), for inactives: at the highest dose activity change, negative = inhibition, most hits filed as inhibitors; 1.6% of 76,000 active; AID 1347048; active = well fitted inhibition curve with a large enough effect; inconclusive = small, poorly fitted or top-dose-only effect; inactive = no such curve, though single readings can be large or run the other way;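 note: nearly all actives have a fitted effect of over 60% in size; nearly all hits also lower the signal before the agonist is added; a reference antagonist and vehicle were the controls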
Target sequence (P16066 whole entry, looked up): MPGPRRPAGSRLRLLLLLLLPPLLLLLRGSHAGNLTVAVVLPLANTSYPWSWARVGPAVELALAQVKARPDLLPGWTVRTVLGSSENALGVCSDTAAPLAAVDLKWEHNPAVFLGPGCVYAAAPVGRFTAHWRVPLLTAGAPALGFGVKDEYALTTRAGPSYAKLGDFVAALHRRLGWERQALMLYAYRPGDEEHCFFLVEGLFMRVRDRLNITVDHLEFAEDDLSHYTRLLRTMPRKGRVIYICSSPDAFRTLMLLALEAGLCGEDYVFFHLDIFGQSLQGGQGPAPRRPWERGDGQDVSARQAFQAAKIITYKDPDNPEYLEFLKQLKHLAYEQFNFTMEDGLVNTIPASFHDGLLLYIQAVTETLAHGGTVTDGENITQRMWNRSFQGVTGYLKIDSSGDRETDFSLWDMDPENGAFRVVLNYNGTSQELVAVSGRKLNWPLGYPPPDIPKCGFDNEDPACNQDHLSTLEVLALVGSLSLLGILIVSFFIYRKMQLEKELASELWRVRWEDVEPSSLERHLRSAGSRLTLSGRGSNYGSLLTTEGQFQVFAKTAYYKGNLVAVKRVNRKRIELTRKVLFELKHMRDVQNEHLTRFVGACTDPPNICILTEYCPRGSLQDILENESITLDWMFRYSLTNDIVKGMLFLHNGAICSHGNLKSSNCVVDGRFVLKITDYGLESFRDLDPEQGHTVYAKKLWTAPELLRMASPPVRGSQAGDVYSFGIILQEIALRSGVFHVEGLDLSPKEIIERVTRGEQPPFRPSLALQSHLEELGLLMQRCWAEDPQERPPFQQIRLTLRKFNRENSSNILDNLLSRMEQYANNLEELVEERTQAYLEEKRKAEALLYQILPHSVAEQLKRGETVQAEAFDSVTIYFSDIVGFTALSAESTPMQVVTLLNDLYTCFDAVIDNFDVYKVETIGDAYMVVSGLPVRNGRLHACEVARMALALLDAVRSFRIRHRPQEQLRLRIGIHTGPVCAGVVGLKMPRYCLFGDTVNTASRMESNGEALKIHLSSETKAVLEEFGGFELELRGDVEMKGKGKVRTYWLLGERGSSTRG
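Compound pre-incubated 30 min at room temperature on GloSensor-loaded HEK293 cells stably carrying hNpr1 and the pGS-40F cGMP biosensor. Stimulation uses hNppA at 0.1 nM final; luminescence is taken at baseline and 20 min post-agonist.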
Numbers without * were called inactive; [ ] = remark or other dose. % is set by controls: 0 for no effect and ±100 for the full control effect; potency is the fitted concentration of half-maximal effect.

Screening COc1ccc(C(=O)N[C@H]2C[C@@H](c3nc(-c4ccc(Cl)cc4)no3)N(C)C2)cc1 returned NPR1 antag inconclusive.
Cc1ccc(NC(=O)N2CCC(CCNC(=O)Cc3ccsc3)CC2)cc1F was read as NPR1 antag -3%.
`COc1coc(CN2Cc3[nH]cnc3CC2C(=O)O)cc1=O` (configuration not stated) gave NPR1 antag 5%.
`COCCN1C[C@H]2CN(Cc3cccc(OC)c3)CCN2C1=O` gave NPR1 antag -2%[70.6 µM].
For COc1cccc(-c2cc(CNC(=O)C(c3ccc(F)cc3)N(C)C)no2)c1 (configuration not stated) the results were NPR1 antag -1%.
Screening Cc1cc(C2CCCN2C(=O)c2cc(C3CC3)on2)on1 (configuration not stated) returned NPR1 antag -3%.
Screening CCC(C)NC(=O)CN1C(=O)NC2(CCC(C)CC2)C1=O (configuration not stated) returned NPR1 antag 1%.
For O=S(=O)(c1ccccc1Cl)N1CCCC(CO)(Cc2cccc(Cl)c2)C1 (configuration not stated) the results were NPR1 antag -27%.
For COc1ccc(C2Cn3cnc(C(=O)N4CCC(C(=O)NCCC5=CCCCC5)CC4)c3CO2)cc1 (configuration not stated) the results were NPR1 antag 4%.
O=C(NCC1(O)CCCN(C(=O)Cc2cccc(O)c2)CC1)c1ccccc1 (configuration not stated) was read as NPR1 antag -3%.
For OC(c1cc2n(n1)CCN(c1ncc(C(F)(F)F)cc1Cl)C2)C1CC1 (configuration not stated) the results were NPR1 antag 2%.
For O=S(=O)(NCCc1noc(-c2ccccc2)n1)c1ccc2c(c1)OCCO2 the results were NPR1 antag -13%.
For Cc1cc(C(=O)N2CC(N(C(=O)NC(C)C)C3CCOCC3)C2)nn1C the results were NPR1 antag 7%.
CC(C)(C)CC(=O)N1C[C@@H](CO)[C@H](c2nc(-c3ccncc3)no2)C1 was read as NPR1 antag 3%.
`CCOc1ncccc1C(=O)N1CCc2onc(-c3ccccc3F)c2C1` gave NPR1 antag -19%.
Screening CN(C)C[C@@H]1CN(S(C)(=O)=O)C[C@H]1N returned NPR1 antag 19%.
`O=C(N[C@@H]1CN(c2ncccn2)C[C@H]1CO)c1ccc2c(c1)OCO2` gave NPR1 antag 0%.
`O=C1CCN(Cc2ccc(C(F)(F)F)cc2)CCCCCCN1` gave NPR1 antag -14%.
`COc1ccc(N2CC(C(=O)N3CCC(C(=O)N4CCCC4)C3)NC2=O)cc1` (configuration not stated) gave NPR1 antag 2%.
Screening COc1ccccc1C(=O)N1[C@@H]2CC[C@H]1CC(NC(=O)c1cnc(C)cn1)C2 (some centres not stated) returned NPR1 antag 3%.
Screening COc1cccc(CCC(=O)N2CCCN(S(C)(=O)=O)c3ccccc32)c1 returned NPR1 antag 6%.
For O=C(NCC1CN(Cc2ccncc2Cl)CC12CN(c1ccccc1)C2)C1CCOCC1 (configuration not stated) the results were NPR1 antag -16%.
Screening Cc1cc(CN2CCN(C(=O)CNC3CC3)CC(C(=O)O)C2)on1 (configuration not stated) returned NPR1 antag 1%.
For CC(Cn1cncn1)NC(=O)c1cccc(S(=O)(=O)N2CCOCC2)c1 (configuration not stated) the results were NPR1 antag -2%.
`CCOc1ccccc1CNC(=O)CN1CC2CC(C1)[C@H]1CCCC(=O)N1C2` (some centres not stated) gave NPR1 antag -19%.
For O=C1CO[C@H]2CN(Cc3c[nH]c4ccccc34)C[C@H]2N1Cc1ccccn1 the results were NPR1 antag 1%[70.6 µM].
C[S+](=O)([O-])N1CCC(Cn2ccc3c(N4CCOCC4)nc(-c4cccc5[nH]ncc45)cc32)CC1 was read as NPR1 antag -17%.
For COc1ccccc1/C=C/CN1CCn2nc(CO)cc2C1 the results were NPR1 antag 3%.
`O=C(NCCc1noc(-c2ccccc2)n1)C1CCCCC1` gave NPR1 antag 0%.
CC(=O)Nc1ccc(NC(=O)Cn2ccn3nc(-c4ccccc4)c(CO)c3c2=O)cc1 was read as NPR1 antag -2%.
Screening COc1ccc(NC(=O)Cn2c(N3CCN(c4ccccc4)CC3)nc(C)cc2=O)cc1Cl returned NPR1 antag -15%.
Screening CC(=O)Nc1ccc(CN(C)Cc2ccccc2C(F)(F)F)cc1 returned NPR1 antag -4%[70.6 µM].
Screening COC[C@@H]1[C@H](C(=O)N2CCN(c3cccc(C)c3)CC2)CCC(=O)N1C returned NPR1 antag -4%.
`Cc1cccc(NC(=O)N2CCCC(CN3CCOCC3)CC2)c1` (configuration not stated) gave NPR1 antag 3%.
COCC(=O)N[C@@H]1CN(Cc2cccc(OC)n2)CC[C@@H]1CO was read as NPR1 antag 0%.
For COc1cccc(CNC(=O)Cn2cccc2-c2nc(-c3ccc(F)cc3)no2)c1OC the results were NPR1 antag -1%.
`O=C(NCC1Cn2cccc2CN1Cc1ccccc1)c1cncc(Br)c1` (configuration not stated) gave NPR1 antag 4%.
For COCCN1C(=O)c2cccn2CC1CNC(=O)c1ccc(Cc2c(C)n[nH]c2C)o1 (configuration not stated) the results were NPR1 antag -19%.
Screening COCCCNc1cc(-c2ccccc2OC)nc2c(C)noc12 returned NPR1 antag 0%[70.6 µM].
`CN(C)c1cccc(-c2cc3c(cn2)CN(Cc2cccnc2)CCN3)c1` gave NPR1 antag -24%[70.6 µM].
Screening O=C(Cc1ccc(F)cc1)N1CCC2(CC1)N=C(c1ccccc1)NO2 returned NPR1 antag 1%.
CC(C)(Oc1nn(Cc2cccc(Cl)c2)c2ccccc12)C(=O)Nc1cccnc1 was read as NPR1 antag inconclusive.
For CCOc1ccccc1NC(=O)Cn1c(N2CCc3ccccc3C2)nc(C)cc1=O the results were NPR1 antag inconclusive.
COCCNC(=O)C(NC(=O)c1ccc(C)cc1)C1CCN(C(=O)c2ccc(Cl)cc2)CC1 (configuration not stated) was read as NPR1 antag 1%.
`O=C1[C@@H]2C[C@@H](CN2CC2CC2)Oc2ccccc2N1Cc1ccccn1` gave NPR1 antag inconclusive.
COc1ccc(C(=O)N2CCC3(CC2)NC(=O)N(c2cccc(F)c2)N3)c(OC)c1 was read as NPR1 antag -11%.
`NCC(=O)N1CCC(n2nccc2NC(=O)Nc2ccccc2Cl)CC1` gave NPR1 antag -1%.
`COCCOCc1nc(C2CCNCC2)no1` gave NPR1 antag -1%.
Screening O=C(O)[C@@H]1CN(C(=O)Cc2ccc(O)cc2)C[C@H]1c1cccc(F)c1 returned NPR1 antag -1%.
`O=C1Nc2ccccc2O[C@H]2C[C@@H]1N(C(=O)NCc1ccccc1)C2` gave NPR1 antag -21%[70.6 µM].
Screening O=C1CC(c2ccccc2)N(C(=O)CNC(=O)Nc2ccc3c(c2)OCCO3)CCCCCN1 (configuration not stated) returned NPR1 antag -2%.
O=C(NC1CCCc2c1[nH]c1ccccc21)c1ccncc1 (configuration not stated) was read as NPR1 antag -5%.
Screening COc1ccc(-c2cc(N3CCC(NC(=O)c4ccc(OC)cc4C)CC3)n[nH]2)cc1 returned NPR1 antag -20%.
`O=C([C@@H]1C[C@H](Oc2cccnc2)CN1C(=O)CC1CCCCC1)N1CCOCC1` gave NPR1 antag 0%.
For CCOc1ccc(NC(=O)N2CCc3cc(OC)c(OC)cc3C2CNC(=O)NC(C)(C)C)cc1 (configuration not stated) the results were NPR1 antag -15%.
Screening Cc1cnc(C2CCN(S(=O)(=O)c3ccccc3)C2)n1C(C)C (configuration not stated) returned NPR1 antag 5%.
Screening COc1ccc(CNC(=O)C2CCc3nc(N4CCN(C(C)=O)CC4)sc3C2)cc1 (configuration not stated) returned NPR1 antag 2%.
Screening COC[C@H]1NC(=O)CC[C@H]1C(=O)NC1CCN(Cc2ccccc2)CC1 returned NPR1 antag 0%.
Screening N#Cc1ccnc(-c2nnc3ccc(NC4CC4)nn23)c1 returned NPR1 antag 2%[70.6 µM].
For CCn1cc(CN2C[C@@H](COC)[C@H](C(=O)NC3CC3)C2)cn1 the results were NPR1 antag 13%.

A portion taken from the entries so far, for reference:
Screening O=C1CC(c2ccccc2)N(C(=O)CNC(=O)Nc2ccc3c(c2)OCCO3)CCCCCN1 (configuration not stated) returned NPR1 antag -2%.
O=C(NC1CCCc2c1[nH]c1ccccc21)c1ccncc1 (configuration not stated) was read as NPR1 antag -5%.

Next structures
Screening COc1ccccc1CN1CC(c2noc(-c3ccc(C)cc3C)n2)CC1=O (configuration not stated) returned NPR1 antag -16%.
CCc1nc(-c2c3n(c(=O)n(Cc4ccc(C#N)cc4)c2=O)CCCCC3)no1 was read as NPR1 antag 1%.
For Cc1ccc(Cl)cc1NC(=O)N(C)CC1CCOCC1 the results were NPR1 antag 7%.
Cc1nnc(-c2cc(-c3ccsc3)ccn2)n1Cc1ccccc1 was read as NPR1 antag -11%[70.6 µM].
`O=C(NC1CCOC2(CCOCC2)C1)c1csc(Cc2ccccc2)n1` (configuration not stated) gave NPR1 antag -4%.
For Cc1ccccc1C(=O)N1CCC2(CC1)N(C)C(=O)CS2(=O)=O the results were NPR1 antag -10%.
For O=C(NC1CCN(c2cc(-c3ccccc3)[nH]n2)C1)c1cc(F)ccc1Cl (configuration not stated) the results were NPR1 antag -9%.
`O=C1Nc2ccccc2CC12CCN(Cc1ccc(F)cc1)CC2` gave NPR1 antag 6%[70.6 µM].
For COCCN(CCOC)C(=O)[C@@H](C)C1CC[C@@]2(C)CC[C@H](NC(=O)c3cncnc3)[C@@H](C)[C@@H]2[C@H]1O (some centres not stated) the results were NPR1 antag -2%.
For CC(C)(C)n1nnnc1C1CC2(CCOCC2)C(=O)N1Cc1cccc(F)c1 (configuration not stated) the results were NPR1 antag -4%.
For CCc1noc([C@@H]2CC(F)(F)CN2C(=O)c2cc(C3CC3)[nH]n2)n1 the results were NPR1 antag 4%.
`O=C1N[C@H](CC(=O)N2CCn3c(nnc3C(F)(F)F)C2)C(=O)Nc2ccccc21` gave NPR1 antag -9%.
For Cc1ccc(Cl)cc1NC(=O)Cn1c(C)cc2nc3n(c(=O)c21)CCCC3 the results were NPR1 antag -19%.
Screening COc1ccc(-c2cc(C[C@@H]3CC[C@H](O)[C@@H](CNC(=O)N4CCOCC4)O3)no2)cc1 returned NPR1 antag -7%[70.6 µM].
For COCCNC(=O)CCc1c(C)nn(-c2cccc(C)c2)c1Oc1ccccc1 the results were NPR1 antag -14%.
Screening CNC(=O)[C@H]1C[C@H](Oc2ccccc2)CN1Cc1c[nH]c2ccc(OC)cc12 returned NPR1 antag -4%.
For COc1ccccc1CC(=O)N1CCCc2ncc(C(=O)NCCc3ccccc3)cc21 the results were NPR1 antag -4%[70.6 µM].
COc1ccc(CN2Cc3[nH]nc(-c4ccc(CO)cc4)c3CC2=O)cc1 was read as NPR1 antag 1%[70.6 µM].
For O=C1NCCCCCCN(Cc2ccncc2)[C@@H]2CN(Cc3ccncc3)CC[C@@H]12 the results were NPR1 antag 2%.
Screening O=C1[C@@H]2C[C@@H](CN2C(=O)C2CC2)Oc2ccccc2N1Cc1ccc(OC(F)(F)F)cc1 returned NPR1 antag inconclusive.
`Cc1nc2c(NC(=O)Nc3cccc(C(F)(F)F)c3)cccn2n1` gave NPR1 antag -24%.
Cc1ccc(CN2CC(Oc3cccc(C(=O)N4CCOCC4)c3)C2)s1 was read as NPR1 antag 22%.
`COc1cc(F)ccc1-c1cc(C(=O)NCCc2cnc[nH]2)c2c(c1)N(C)CCO2` gave NPR1 antag 3%[70.6 µM].
Screening CC(=O)N1CCC(NC[C@H]2COCc3nc4cc(F)ccc4n32)CC1 returned NPR1 antag 3%[70.6 µM].
Screening CC1CCC2(CC1)NC(=O)N(CC(=O)Nc1ccc(Br)cc1)C2=O (configuration not stated) returned NPR1 antag 4%.
`CN1C(=O)CCC2(CNC(=O)Cc3c[nH]c4ccccc34)CCCC=C12` (configuration not stated) gave NPR1 antag 3%.
Screening CCC(CC)C(=O)N1C[C@@H]2CCCN3CCC[C@@H]([C@H]23)[C@H]1CCCC(=O)N1CCOCC1 returned NPR1 antag 6%.
`CCc1noc(-c2cn(C3CCN(C(=O)c4ccc(C)cc4)CC3)nn2)n1` gave NPR1 antag -12%.
`O=C1CCCN1CCCN1C(=O)[C@@H]2C[C@@H](O)CN2C2(CN(Cc3cnc4ccccc4c3)C2)C1=O` gave NPR1 antag -12%.

Among those listed so far, 13 have sulfur:
Cc1ccc(NC(=O)N2CCC(CCNC(=O)Cc3ccsc3)CC2)cc1F was read as NPR1 antag -3%.
For O=S(=O)(c1ccccc1Cl)N1CCCC(CO)(Cc2cccc(Cl)c2)C1 (configuration not stated) the results were NPR1 antag -27%.
For O=S(=O)(NCCc1noc(-c2ccccc2)n1)c1ccc2c(c1)OCCO2 the results were NPR1 antag -13%.
Screening CN(C)C[C@@H]1CN(S(C)(=O)=O)C[C@H]1N returned NPR1 antag 19%.
Screening COc1cccc(CCC(=O)N2CCCN(S(C)(=O)=O)c3ccccc32)c1 returned NPR1 antag 6%.
For CC(Cn1cncn1)NC(=O)c1cccc(S(=O)(=O)N2CCOCC2)c1 (configuration not stated) the results were NPR1 antag -2%.
C[S+](=O)([O-])N1CCC(Cn2ccc3c(N4CCOCC4)nc(-c4cccc5[nH]ncc45)cc32)CC1 was read as NPR1 antag -17%.
Screening Cc1cnc(C2CCN(S(=O)(=O)c3ccccc3)C2)n1C(C)C (configuration not stated) returned NPR1 antag 5%.
Screening COc1ccc(CNC(=O)C2CCc3nc(N4CCN(C(C)=O)CC4)sc3C2)cc1 (configuration not stated) returned NPR1 antag 2%.
Cc1nnc(-c2cc(-c3ccsc3)ccn2)n1Cc1ccccc1 was read as NPR1 antag -11%[70.6 µM].
`O=C(NC1CCOC2(CCOCC2)C1)c1csc(Cc2ccccc2)n1` (configuration not stated) gave NPR1 antag -4%.
For Cc1ccccc1C(=O)N1CCC2(CC1)N(C)C(=O)CS2(=O)=O the results were NPR1 antag -10%.
Cc1ccc(CN2CC(Oc3cccc(C(=O)N4CCOCC4)c3)C2)s1 was read as NPR1 antag 22%.

A portion of the library; rates above refer to the full screens.
